Rce1 inhib: inhibitors of yeast Ras-converting enzyme; Q03530; hit rate 0.27% among 290,000; calls only; yeast membranes, quenched prenylated peptide cleavage fluorescence;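 active = fall in fluorescence gain of 50% or more versus controls, with final raw signal at or below 3038400; inconclusive = same 50% fall but final raw signal above 3038400; inactive = fall in fluorescence gain under 50%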;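 note: plate controls were neutral control wells for no effect and wells lacking membranes for full effect; tested at 10 µM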
Target sequence (Q03530 whole entry, looked up): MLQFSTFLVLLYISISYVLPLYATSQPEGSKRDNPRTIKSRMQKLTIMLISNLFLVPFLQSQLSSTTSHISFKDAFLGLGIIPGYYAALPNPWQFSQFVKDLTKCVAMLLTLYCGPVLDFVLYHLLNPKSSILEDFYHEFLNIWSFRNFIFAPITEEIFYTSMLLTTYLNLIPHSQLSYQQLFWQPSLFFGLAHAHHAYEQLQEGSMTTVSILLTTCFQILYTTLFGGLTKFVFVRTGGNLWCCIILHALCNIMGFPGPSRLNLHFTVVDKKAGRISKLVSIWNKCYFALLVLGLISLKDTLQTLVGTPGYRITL
Yeast UUG start: modulators of start codon recognition fidelity in yeast; hit rate 0.13% among 350,000; AID 602363; S. cerevisiae UUG-firefly luciferase reporter, luminescence/redox ratio; activity score, % at 18.7 µM;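 active = replicate mean at a twofold rise or more, about +100% in these data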;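 note: firefly luciferase made from a UUG start codon reports start codon fidelity; reporter light over untreated wells divided by growth signal over untreated wells; some hits fall short of that in this replicate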
PABP FP inh: blocks human PABP binding to poly(A) RNA; P11940; fluorescence polarization; hit rate 1% among 290,000; inhibition, % at 35 µM;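 active = 50% or more with normal probe brightness, or confirmed in later tests; inconclusive = above 50% with abnormal brightness, or retests that disagree; inactive = below 50% or failed in later tests; about a fifth of its hits are not listed in these tables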;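 note: calls also rest on retests at 20 µM and on dose response follow-up; controls were probe without protein and protein plus probe with vehicle; some compounds called inactive have numbers as strong as hits; many hits fall short of the cut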
eIF4H FP inh: inhibitors of RNA binding by human eIF4H; eIF4H fluorescence polarization binding assay; Q15056; inhibition, % at 35 µM; hit rate 0.94% among 290,000;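 active = 50% or more with normal probe brightness, or confirmed in later tests; inconclusive = above 50% with abnormal brightness, or retests that disagree; inactive = below 50% or failed in later tests; about a fifth of its hits are not listed in these tables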;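 note: calls also rest on retests at 20 µM and on dose response follow-up; 0% = protein and probe with vehicle and 100% = probe without protein; strong numbers were not always called active; many hits fall short of the cut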
CSC inhib: cancer stem cell inhibition | inhibition, % at 7.5 µM | AID 2717 | hit rate 1.1% among 300,000 | cancer stem cell-like cells viability, luminescence;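 active = mean at 75% or more and at least half the replicates too; inconclusive = mean and replicates disagree; tested in HMLE shEcad cells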;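 note: 0% = median of negative and 100% = median of positive control wells; the first replicate is given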
MT1-MMP act inh: inhibitors of human MT1-MMP activation. P50281. HT1080 RFP-PRO-GFP cells, GFP/RFP ratio fluorescence, overnight; percent of plate control window, DMSO zero. GFP/RFP ratio change, % at 20 µM. hit rate 0.061% among 360,000. AID 651647;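 active = GFP/RFP ratio change of at least 30% with cell ATP level not reduced by more than half and red fluorescence within 50% of control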; note: strong numbers were not always called active
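Read-out: GFP/RFP fluorescence ratio; Test system: RFP-PRO-GFP reporter HT1080 cells; Compound dosing: single-point 20 µM compound, 1% DMSO; Times: overnight compound exposure at 37 °C.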
HIV Env fusion: inhibitors of HIV Env-mediated cell fusion; inhibition, % at 12.3 µM; hit rate 1.1% among 360,000; HeLa-JRFL Env/CEM21 cell fusion, luciferase; AID 651610;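 active = mean replicate inhibition score of at least 50 and every replicate individually at or above 50; inconclusive = only one of the two criteria met; inactive = mean below 50 and not all replicates reaching 50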;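 note: 0% = plate neutral controls and 100% = maraviroc near 300 nM; one replicate is shown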
MT1-MMP act inh RFP: further read-out of MT1-MMP act inh, marked with its call; RFP signal change, %; measured here: RFP expression control read;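 0 = vehicle wells; hits needed this value within 50% of zero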
Starred values were filed as active, the others as inactive; i = inactive; ? = inconclusive; nt = not tested or not shown; & = joins results of further samples; [ ] = dose if it differs, or a comment. An excerpt. The share of hits here may be higher or lower than overall.

smiles	Rce1 inhib	Yeast UUG start	PABP FP inh	eIF4H FP inh	CSC inhib	MT1-MMP act inh	MT1-MMP act inh RFP	HIV Env fusion
C=C(C)C(=O)Nc1cccc(C2=NOC3(C2)C[C@@H](C(N)=O)N(C(=O)/C=C/C=C/C)C3)c1 (stereo partly specified)	i	13	56*	93*	-17	3	1	21
N#Cc1ccc(N2CCN(C(=O)c3cccc(F)c3)CC2)c(F)c1	i	-2	-6	4	-17	3	-6	3
CC1CCc2c(sc(NC(=O)CSc3ncn[nH]3)c2C#N)C1 (stereo unspecified)	i	-22	5	6	38	-2	-19	65*
O=C(Cn1cnc2ccccc2c1=O)NNC(=O)c1ccccc1	i	-17	3	3	4	3	2	14
C=C(Br)CN1[C@@H](Cc2ccccc2)[C@H](O)[C@@]23C=C[C@@H](C[C@@H]2S1(=O)=O)O3	nt	-13	nt	nt	-5	-3	-4	-2
CCC(C)C(=O)Nc1ccc(OC)cc1[N+](=O)[O-] (stereo unspecified)	i	nt	1	-5	-6	2	4	-2
COc1cccc(NC(=O)CSCc2nc3sc(C)c(C)c3c(=O)[nH]2)c1	nt	-6	nt	nt	nt	-1	5	-44
CC1CCCC(C)N1C(=O)CSc1nnc(COc2ccc(F)cc2)o1 (stereo unspecified)	i	-5	-3	-3	0	0	-2	6
O=C(NCCCN1CCCC1=O)c1nnc(Cc2c(F)cccc2Cl)o1	i	3	1	-9	-1	3	5	-13
O=C(N/N=C/c1ccc(N2CCOCC2)cc1)c1ccccn1	i	nt	-13	-2	-8	-2	5	-2
CN1C(=O)C2C(c3ccc(N(C)C)cc3)=NN(Cc3ccccc3)C2C1=O (stereo unspecified)	i	nt	2	5	-9	1	-3	1
Cc1ccc(Cn2cnc3ccccc32)cc1	i	-27	2	-3	7	8	-11	nt
NS(=O)(=O)c1ccc(CNC(=O)c2ccc3c(=O)n4c(nc3c2)CCC4)cc1	i	-3	nt	nt	-10	-2	3	-2
Cc1cnc(C(=O)Nc2ccc(OC(F)(F)F)cc2)cn1	i	2	3	-9	34	2	-6	-65
CCc1nc(SCc2ccc(F)cc2)n[nH]1	i	-11	12	7	-9	0	2	-11
CCc1nnc(NC(=O)CCC(=O)NC2CCCCCC2)s1	i	-4	1	10	5	-2	2	-9
COc1ccccc1CNC(=O)COC(=O)c1ccc(S(=O)(=O)N2CCCCC2)cc1	nt	-6	nt	nt	-8	3	1	-15
COc1ccc(C(=O)N/C(=C\c2cn(S(=O)(=O)N(C)C)c3ccccc23)C(=O)N2CCCC2)cc1	nt	1	nt	nt	nt	1	-1	-12
Clc1cccc(Cc2c(-c3ccco3)nc3ccc(Br)cn23)c1	nt	-19	nt	nt	nt	-4	-3	1
CCOC(=O)c1cccc(NC(=O)c2ccc(-n3cnnn3)cc2)c1	nt	-23	nt	nt	8	4	3	-1
O=C(/C=C/Nc1cccc(C(F)(F)F)c1)C(F)(F)F	nt	nt	5	-1	-17	1	2	nt
COc1ccccc1NCCC(=O)O	i	nt	13	0	-6	-3	4	1
CCC(C)NS(=O)(=O)c1ccc(OCC(=O)NCC2CCCO2)cc1 (stereo unspecified)	i	27	6	-3	-6	7	3	nt
Cc1cc(NS(=O)(=O)c2c(C)[nH]c(=O)[nH]c2=O)ccc1Br	i	-12	4	0	-5	5	3	10
C=C(C)CNC(=S)N1CCNC(=O)C1CC(=O)OC (stereo unspecified)	i	-1	-5	-5	nt	-2	1	-11
COc1ccc(NC(=O)COC(=O)c2ccc(OCc3c(C)noc3C)cc2)cc1OC	i	-9	-6	6	-4	12	5	6
O=C(NC1CCCCC1)N(CCN1CCCC1)Cc1cc2cc3c(cc2[nH]c1=O)OCCO3	i	-12	18	9	-4	-3	6	nt
CC(C)CSc1n[nH]c(=S)s1	nt	nt	-9	-12	-7	-1	2	-3
COc1cc(/C=C/C(=O)Nc2cccnc2)cc(OC)c1OC	i	1	2	1	-7	4	0	2
Cc1cccc(N2CCN(C(=O)NC(C)c3ccc(F)c(F)c3)CC2)c1C (stereo unspecified)	i	-13	-7	4	6	-1	-2	2
Cn1cc(C(=O)c2ccc(Cl)cc2Cl)cc1C(=O)N/N=C(\N)COc1ccc(Cl)cc1Cl	i	nt	-4	9	-17	-16	-24	nt
CCn1cc(C(=O)NCCC(C)C)c(=O)c2cc(F)c(N3CCN(C)CC3)cc21	i	-5	13	5	34	1	6	13
CC1=C(C)CC(C(=O)Nc2cccc(Cl)c2)C(C(=O)O)C1 (stereo unspecified)	i	-14	-4	-4	-6	-4	1	-37
NS(=O)(=O)c1ccc(CCNC(=O)C2CCC(Cn3c(=S)[nH]c4ccccc4c3=O)CC2)cc1 (stereo unspecified)	i	nt	8	-3	-10	-6	-3	1
Oc1ccc(-c2cc(-c3ccc(O)cc3)nc(-c3ccccc3)n2)cc1	i	-5	-13	-14	105*	-2	-10	13
COc1cccc(C(NC(C)=O)c2nc(-c3ccc4c(c3)OCO4)cs2)c1 (stereo unspecified)	nt	-12	nt	nt	nt	5	-3	9
COc1ccc(NC(=O)CN2CCN(S(=O)(=O)c3ccc(Cl)cc3)CC2)cc1Cl	i	10	1	-10	-6	2	-4	nt
O=C(Nc1cc(Cl)ccc1N1CCOCC1)c1ccncc1	nt	-18	nt	nt	-2	-6	-3	nt
O=S(=O)(Nc1ccc(F)cc1)c1ccc(NC(=S)Nc2ccccc2)cc1	i	nt	7	-3	-1	0	2	nt
COc1ccc(OC)c(-c2csc(NC(=O)c3ccc4c(c3)OCO4)n2)c1	i	nt	-12	1	51	-7	-8	-43
Cc1cc([N+](=O)[O-])nn1CC(=O)NC1CCCCC1	i	-16	2	6	2	-1	0	-2
CC1CN(c2nc3ccccc3nc2C(C#N)C(=O)OC2CCCCC2)CC(C)O1 (stereo unspecified)	i	-2	?	?	12	-13	-9	59*
CCOc1ccc(CCNC(=O)COC(=O)c2cccc(S(=O)(=O)N(C)C)c2)cc1OCC	nt	-3	nt	nt	nt	0	5	-12
CC(C)(C)CNC(=O)C1(C)CCN1C(=O)C1(c2ccccc2)CC1 (stereo unspecified)	nt	-17	nt	nt	nt	-3	-1	21
O=C(COc1ccc2c(c1)oc(=O)c1ccccc12)N[C@@H](Cc1c[nH]c2ccccc12)C(=O)O	i	-18	16	10	-14	-1	0	nt
COc1cc(-c2noc(C)c2C#CCO)cc(OC)c1OC	i	2	0	-12	2	5	5	-156
Cc1cc(C)cc(NC(=O)C2CCCN(S(=O)(=O)c3c(C)noc3C)C2)c1 (stereo unspecified)	i	-10	7	-10	15	1	2	1
CCOc1ccc(NC(=O)C2CCC(CNc3c(N4CCCCC4)c(=O)c3=O)CC2)cc1 (stereo unspecified)	i	1	-4	10	-8	1	3	15
Cc1cc(C)n(-c2nc(C)nc(N)n2)n1	i	-1	0	-1	-12	2	9	nt
Cc1cc(Cl)ccc1OCCCC(=O)OCC(N)=O	i	-18	?	-1	1	-1	1	-41

New compounds follow
smiles	Rce1 inhib	Yeast UUG start	PABP FP inh	eIF4H FP inh	CSC inhib	MT1-MMP act inh	MT1-MMP act inh RFP	HIV Env fusion
COc1ccc(OCCSc2nc3nc(C)cc(C)n3n2)cc1	i	nt	-1	-1	-4	-3	-1	-3
COc1ccc(C(C(=O)NCc2ccccc2)N(Cc2ccco2)C(=O)c2cnccn2)cc1 (stereo unspecified)	i	nt	5	-4	-14	-5	-1	9
Cc1ccc2c(c1)[C@H]1[C@H](CO2)[C@H](c2ccccc2)[C@]2(C)C(=O)NCC(=O)N12	nt	-22	nt	nt	-26	-2	5	14
COc1cc(/C=C/C(=O)Nc2ccc(OC)c(S(=O)(=O)N3CCOCC3)c2)ccc1OC(F)F	nt	2	nt	nt	-3	-3	-25	nt
Cc1ccc(CN2C(=O)C(F)(F)Oc3ccccc32)cc1	nt	-42	nt	nt	nt	-1	-1	-2
Cc1ccc2c(c1)c(N=NC(N)=S)c(O)n2Cc1ccccc1	i	-4	-13	4	-4	7	5	nt
CCCc1ccc(S(=O)(=O)N2CCN(C(C)C(=O)NCc3ccc(OC)cc3)CC2)cc1 (stereo unspecified)	nt	3	nt	nt	8	10	-14	nt
Clc1ccc(N2CCN(Cc3c[nH]c4ncccc34)CC2)cc1	nt	5	nt	nt	23	-3	-8	-9
Cc1ccc2c(c1)N(CC(=O)N1CCC(O)CC1)C(=O)CO2	i	-19	7	14	nt	-2	-2	-10
CC(C)C[C@H](NC(=O)c1nc[nH]c1C(=O)N(C)Cc1ccccc1)C(=O)OC(C)(C)C	i	1	-2	9	-10	5	2	6
O=C(NCc1cccnc1)c1cc(Cl)ccc1[N+](=O)[O-]	i	-8	-7	1	3	-2	0	-7
COc1ccc(N(C(=O)Cn2cnc3ccccc32)C(C(=O)NC2CCCCC2)c2ccccc2)cc1 (stereo unspecified)	i	-11	-14	-15	-3	-4	-3	-31
COCCN1CCN(c2c3c(nc4cc(-c5cccc(F)c5)nn24)CCC3)CC1	i	-5	-6	-10	11	1	-6	nt
O=C1CCCC2=C1C(c1cccc(Br)c1)n1nc(-c3ccco3)nc1N2 (stereo unspecified)	i	-16	nt	nt	nt	0	-2	11
COc1ccc(OCc2cc(C(=O)NC3CCc4ccccc43)no2)c(Cl)c1 (stereo unspecified)	i	2	0	-5	6	-4	-3	9
COc1ccccc1NCC(=O)n1nc(C)cc1C	i	nt	1	-2	8	2	4	12
CN(C)S(=O)(=O)c1ccc(NC(=O)COc2ncnc3sccc23)cc1	i	-10	6	-10	-2	1	4	-19
O=C(C[C@@H]1C[C@@H]2c3cc(NS(=O)(=O)c4ccc(F)cc4)ccc3O[C@@H]2[C@H](CO)O1)NCc1ccc(Oc2ccccc2)cc1	nt	-20&-13	nt	nt	nt	1	-17	39[16.7 µM]
CC1CC(CCC(=O)NC(=S)Nc2ccc(S(N)(=O)=O)cc2)C(=O)O1 (stereo unspecified)	i	-17	-10	-4	-8	7	5	3
O=C(c1cccc(N2CCCC2=O)c1)N1CCN(c2ccc(F)cc2)CC1	i	4	-8	0	-7	1	3	4
NNC(=O)c1nc(-c2cccc(-n3cccc3)c2)no1	i	nt	-6	-3	-3	-2	4	6
Cc1nc(CSc2ccc(Cl)cc2)cc(N2CCOCC2)n1	i	-10	11	18	2	7	6	nt
CC1CCCCN1S(=O)(=O)c1cccc(S(=O)(=O)N2CCOCC2)c1 (stereo unspecified)	i	-3	-1	5	-7	-1	-3	6
COc1cccc(NC(=O)C2(C)CCN2Cc2ccccc2Cl)c1 (stereo unspecified)	nt	-2	nt	nt	nt	-2	-6	29
COC(=O)c1[nH]c(C)c(/C(O)=C2\C(=O)C(=O)N(CCN3CCOCC3)C2c2cccnc2)c1C (stereo unspecified)	i	-17	10	5	nt	-3	3	-6
COc1ccc(-c2nn(-c3ccccc3)cc2/C=N/N2C(=O)CSC2=S)cc1	i	-5	37	16	108*	-5	-1	67*
COCC(=O)Nc1ccc(C(N)=O)cc1	i	-5	-4	-8	-7	1	-3	8
CCN(CC)c1ccc(/C=N/N2CC(=O)NC2=S)cc1	nt	-28	nt	nt	-3	-1	2	-6
OCC[C@H]1C[C@@H](O)[C@H](O)[C@@]2(CCCCO2)O1	i	-8	nt	nt	0	-3	6	17
Cc1cccc(N2C(=O)C(Cl)=C(N3CCOCC3)C2=O)c1	i	-13	-3	-12	-3	-3	4	-3
CC(=O)c1c(C)nc(-c2ccc3c(c2)OCO3)n1O	i	nt	-11	-3	-10	1	4	nt
CC1=CC(C)(C)NC(=S)N1c1cccc2ccccc12	i	-17	8	-1	2	0	1	nt
